TRPML1 blocker: inhibitors of human TRPML1 channel; Q9GZU1; TRPML1-inducible cells, Ca2+ dye fluorescence, FDSS; stronger effect = lower value; inhibition of EC80 agonist-evoked calcium signal; activity change, negative = inhibition, % (test concentration not listed); 0.02% of 390,000 active; in the data active means activity change below about -50%; inconclusive means about -30% to -50%; inactive means above about -30%;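 note: stimulus is agonist 54-4 at its EC80 concentration; % is set by controls: 0 for no effect and ±100 for the full control effect; compound concentration not given in the record; the text of the record puts the active cut at -80%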
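Calcium fluorescence in TRPML1-DL cells induced overnight with Tet: a 110 s read after compound pin addition, then a 110 s antagonist read after challenge with 54-4 at 4 uM final (EC80).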
Sfp PPTase inh: Sfp phosphopantetheinyl transferase inhibition. Q9F4F7. 3.5% of 310,000 active. Potency, µM, for inactives: max response, negative = inhibition, actives largely listed as inhibitors. Biochemical Sfp PPTase activity, qHTS; active = well fitted inhibition curve with a large enough effect; inconclusive = small, poorly fitted or top-dose-only effect, or another doubt; inactive = no such curve, though single readings can be large or run the other way;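 note: the enzyme is Sfp with the accession as filed and its product quenches rhodamine fluorescence; potency is the fitted concentration of half-maximal effect; 0% = enzyme reaction without inhibitor and -100% = no enzyme wells; top concentration of the series not given in the record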
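Fluorescence-quenching assay with 15 nM Sfp, 5 uM rhodamine-CoA and 12.5 uM BHQ-2-labelled ybbR peptide in pH 7.6 Hepes/MgCl2 buffer. Enzyme was pre-incubated with compound for 15 min at room temperature. Rate was taken from the 30-min fluorescence change (525/598 nm).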
ClpP mod: qHTS Assay for Activators of ClpP. ATP-dependent Clp protease proteolytic subunit (Bacillus subtilis (strain 168)), P80244. purified B. subtilis ClpP, FRET peptide cleavage, 20 min. Potency, µM (titrated, usually from 57.5 µM), without a hit: at the highest dose activity change, negative = active. 1.9% of 340,000 active. AID 651965, 2013; active = well fitted falling curve with a large enough effect; inconclusive = small, poorly fitted or top-dose-only effect; inactive = no such curve, though single readings can be large or run the other way; note: potency is the fitted concentration of half-maximal effect; the source files actives as falling curves though it sought activators and does not explain the sign; nearly all actives have a fitted effect of over 65% in size; many hits overshoot -100%
Target sequence (P80244 whole entry, looked up): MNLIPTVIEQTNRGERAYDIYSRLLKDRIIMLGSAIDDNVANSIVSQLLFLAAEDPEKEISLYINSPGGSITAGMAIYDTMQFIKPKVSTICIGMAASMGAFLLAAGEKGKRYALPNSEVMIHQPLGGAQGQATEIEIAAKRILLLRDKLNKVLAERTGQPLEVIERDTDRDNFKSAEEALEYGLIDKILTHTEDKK
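Buffer: 100 mM Tris/HCl pH8, 100 mM KCl, 0.05% low protease BSA, 2.5% glycerol, 0.01% Tween-20. ClpP 10 microg/mL final; 20 min RT; delta FRET normalized to ADEP and DMSO controls.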
TRPML1 ag: activates the human TRPML1 channel. Q9GZU1. TRPML1-expressing cells, Ca2+ dye fluorescence, FDSS; host cell line not named in the record; reference of the full effect not given here. activation, % (test concentration not listed). 0.12% of 410,000 active. AID 624414; in the data active = activation above about 50%; inconclusive = about 30% to 50%; inactive = below about 30%; note: 0% is about no effect; the text of the record puts the active cut at 80%
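Cells: TRPML1-DL, 1X Tet inducer, ~16 h at 37 degrees C/5% CO2. Dye: ABD Ca8 no-wash + quencher, 45-90 min RT. Read: 10 s baseline, compound add, 110 s agonist phase; 54-4 EC80 (4uM final), 110 s antagonist phase.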
TRPV1 potentiator: enhances activation of the human vanilloid receptor TRPV1 | AID 540277 | potentiation, % at 8.33 µM | TRPV1-expressing cells, Fluo-8 calcium influx, capsaicin EC20 potentiation; host cell line not named in the record; control for the full effect not named in the record | Q8NER1 | 0.02% of 320,000 active; active means potentiation above 80%; inconclusive means 30% to 80%; inactive means below 30%; note: 0% is about no effect
Target sequence (Q8NER1 whole entry, looked up): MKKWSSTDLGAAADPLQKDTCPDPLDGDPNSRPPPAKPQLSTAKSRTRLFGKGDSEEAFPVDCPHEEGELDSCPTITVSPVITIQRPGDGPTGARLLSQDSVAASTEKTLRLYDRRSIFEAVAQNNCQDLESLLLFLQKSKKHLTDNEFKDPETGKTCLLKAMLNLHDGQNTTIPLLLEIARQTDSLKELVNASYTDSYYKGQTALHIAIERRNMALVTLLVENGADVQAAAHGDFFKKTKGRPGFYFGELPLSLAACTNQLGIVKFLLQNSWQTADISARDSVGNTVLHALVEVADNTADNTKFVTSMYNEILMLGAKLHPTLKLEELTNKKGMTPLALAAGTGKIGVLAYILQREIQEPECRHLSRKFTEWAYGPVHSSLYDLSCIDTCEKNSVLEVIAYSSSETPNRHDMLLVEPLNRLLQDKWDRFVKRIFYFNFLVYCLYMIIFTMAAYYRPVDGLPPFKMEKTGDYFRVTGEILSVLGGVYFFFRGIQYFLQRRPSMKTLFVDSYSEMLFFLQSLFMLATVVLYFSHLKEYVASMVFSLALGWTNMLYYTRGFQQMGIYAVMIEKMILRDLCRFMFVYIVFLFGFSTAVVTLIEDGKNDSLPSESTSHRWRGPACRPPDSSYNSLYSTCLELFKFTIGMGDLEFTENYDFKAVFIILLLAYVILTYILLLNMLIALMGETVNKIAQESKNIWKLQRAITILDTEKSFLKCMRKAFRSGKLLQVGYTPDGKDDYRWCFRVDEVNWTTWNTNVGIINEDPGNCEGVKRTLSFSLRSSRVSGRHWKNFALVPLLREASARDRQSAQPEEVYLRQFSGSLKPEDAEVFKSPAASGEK
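Fluo-8 calcium influx in TRPV1-expressing cells, kinetic read (ex 480/em 520 nm). Compound added and read 3 min for agonist activity, followed by capsaicin at EC20 final and 2 min further read for enhancement.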
Menin MLL FP FL: menin-MLL binding inhibition, fluorescein peptide | Fluorescence polarization, fluorescein-MLL peptide displacement from menin | 290,000 tested, under 10 active | FP activity change, % at 61.4 µM; inconclusive = falling polarisation curve, or a change in total fluorescence; inactive = total fluorescence flat and polarisation flat or rising; no compound was filed as active; the % refers to the polarisation; negative = inhibition;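 note: % of control where 0% means no effect; inhibitors lower the polarisation; unlabelled MLL peptide was the positive control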
PINK1 modulator: modulators of PINK1 expression | PINK1 immunofluorescence, high-content cytometry, 24 h | Potency, µM (highest dose often 76.6 µM), inactives show at the highest dose activation (PINK1 increase), usual class: activators | 0.2% of 410,000 active | AID 624263; active = well fitted activation curve with a large enough effect; inconclusive = small, poorly fitted or top-dose-only effect; inactive = flat fitted curve, though single readings scatter; cell line not stated here;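 note: potency is the fitted concentration of half-maximal effect; % of control where 0% means no effect; nearly all actives have a fitted effect of over 65% in size; a mitochondrial uncoupler was the plate control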
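Stable cell line, 250 cells/well, 12 h attachment; compounds pinned at 5 concentrations, 24 h; CCCP control. Fixed with nuclear dye, primary antibodies 12 h at 10 degrees C, secondary plus cell stain; laser-scanning cytometer read.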
The depositor's hits bear a star; ? = inconclusive; / = no result given; & = joins results of further samples; [ ] = dose if it differs, or a comment.

SMILES	TRPML1 blocker	Sfp PPTase inh	ClpP mod	TRPML1 ag	TRPV1 potentiator	Menin MLL FP FL	PINK1 modulator
CCOC(=O)Cn1nc(C)n(-c2ccc(Br)cc2)c1=O	-7	4%	2.2%	0.6	8	0.4	1.5%
COc1ccc(NC(=O)c2cnc[nH]2)cc1	-4	/	1.5%	-0.7	/	/	2.6%
CN(C(=O)CN1C(=O)CCSc2ccc(S(=O)(=O)N3CCCC3)cc21)c1ccccc1	5&25	3%	-1.6%&0.1%	0.6&-0.9	-6	/	3.1%&0.3%
COc1ccc(C(C)(C)C)cc1NC(=O)COc1ccc(-c2nnco2)cc1	29	/	-5.5%	1.5	/	/	4.1%
COc1ccc(CC(=O)Nc2nc(-c3ccc(F)c(F)c3)cs2)cc1OC	1	8%	/	-0.2	-7	3.0	4.8%
CCOC(=O)c1cnc2ccc(C(=O)OC)cc2c1Nc1cccc(C(=O)O)c1	-5	13%	/	-0.8	-6	7.3	0.9%
Cc1ccc(-c2csc(NC(CO)c3nc4ccccc4n3CCOCCO)n2)cc1 (centres undefined)	-6	/	-7.1%	-0.7	/	/	1.8%
O=C(NC1CC1)C1CCN(C2CCN(Cc3ccccc3C(F)(F)F)CC2)CC1	-10	21%	0.7%	-0.3	13	/	-0.4%
COc1ccc(CN(C)CC2CCCN(CCc3ccc(Cl)cc3)C2)cc1OC (centres undefined)	21	1%	/	-0.6	5	1.1	4.9%
Cc1sc2ncn3ncnc3c2c1C	-7	8%	-4.8%	0.3	?	8.3	-2.8%
CCN1C(=O)/C(=C2/C=CC=CN2C)OC1=S	-7	-17%	1.1%	-0.7	-2	4.8	1.2%[38.3 µM]
CC(C)C(C(=O)NC1CCCC1)N(Cc1ccco1)C(=O)CNS(=O)(=O)c1ccccc1 (centres undefined)	6	2%	/	-0.5	6	-5.0	11%
Cc1cs/c(=N/C(=S)Nc2ccccc2)n1C	7	3%	-1.3%	0.0	5	1.1	1.1%
O=C(c1ccc(S(=O)(=O)Nc2ccc(F)cc2)cc1)N1CCN(c2ccccn2)CC1	-5	3%	/	2.8	2	3.2	-0.6%
Cc1ccc(S(=O)(=O)N2CCN(S(=O)(=O)N3CCOCC3)CC2)cc1	59	9%	-0.6%	0.8	-11	4.9	-4.5%[38.3 µM]
CC(C)(C)NC(=O)CCCCCCCC(=O)NC(C)(C)C	-16	-5%	-2.4%	0.1	0	-2.1	-1.7%
CC(C)(C)C(=O)Nc1ccc(C(=O)N/N=C/c2ccccc2OC(=O)c2ccccc2)cc1	-3	25%	-2.2%	1.0	5	1.5	0.6%
Cc1ccnc(NC(=O)C2CCN(S(=O)(=O)c3cccc4nsnc34)CC2)c1	11	22%	0.0%	-0.4	-15	-1.3	0.9%
O=C(O)CCC(=O)N(Cc1ccco1)c1nc(-c2ccccc2)cs1	-8	-18%	0.2%	-0.1	2	6.3	-0.8%
O=C(NCC1CCCO1)c1ccc2c(c1)N(Cc1ccc(F)cc1Cl)C(=O)CS2 (centres undefined)	-17	11%	2.2%	1.2	-7	2.6	0.4%
CCN(CC(=O)Nc1cc(Cl)ccc1C)C(=O)CCS(=O)(=O)c1ccc(C)cc1	-13	/	-3.7%	0.0	25	/	0.7%
CCCCCCCCOc1ccc(C2OC34CCCCC3C(C#N)(C#N)C2(C#N)C(=N)O4)cc1 (centres undefined)	0	-10%	20µM*	-0.1	1	?	5.3%
Cc1ccc(NC(=O)CNC(=O)COc2ccccc2)nc1	-4	/	0.7%	-0.2	-9	/	-1.5%
Brc1ccc(-c2csc(N/N=C/c3ccc4c(c3)OCO4)n2)cc1	-7	2.8µM*	-2.0%	-0.5	29	1.9	5.3%

An excerpt from above in order of their number in TRPML1 blocker, descending:
SMILES | TRPML1 blocker
Cc1cs/c(=N/C(=S)Nc2ccccc2)n1C | 7
CCOC(=O)c1cnc2ccc(C(=O)OC)cc2c1Nc1cccc(C(=O)O)c1 | -5
Cc1sc2ncn3ncnc3c2c1C | -7

(further entries)
SMILES	TRPML1 blocker	Sfp PPTase inh	ClpP mod	TRPML1 ag	TRPV1 potentiator	Menin MLL FP FL	PINK1 modulator
O=C(O)C1CCCCC1C(=O)Nc1ccccc1F (centres undefined)	-2	10%	-0.7%	0.6	10	8.4	6.8%[38.3 µM]
O=C(NCc1ccccc1)C1=C[C@H](c2ccccc2)C[C@H](OCc2ccc(CO)cc2)O1	18	/	-1.1%	0.8	/	/	0.0%
COc1ccccc1OCCCCCCN1CCOCC1	5	-28%	-3.0%	1.1	-6	-2.5	1.3%
CC(C)N(C(=O)Cn1cc(SCC(=O)NCC2CCCO2)c2ccccc21)C(C)C (centres undefined)	2	26%	?	-0.3	4	-5.2	-0.2%
Cc1ccc(NC(=O)[C@H](Cc2ccccc2)NC(=O)C2CCNCC2)cc1	2	1%	-0.6%	-0.5	6	/	-0.5%
Cc1cccc(NC(=S)NC(=O)C(c2ccccc2)c2ccccc2)n1	4	/	1.4%	0.3	/	/	2.5%
CS(=O)(=O)Oc1ccc2c(c1)O/C(=C\c1cccnc1)C2=O	17	-13%	/	1.5	/	0.6	1.9%
COc1cccc(/C=N/NC(N)=S)c1OS(=O)(=O)c1ccccc1	9	10%	0.4%	2.6	3	3.2	-1.2%
C/C(CC(C)C)=N\Nc1ccc(S(N)(=O)=O)cc1[N+](=O)[O-]	-9	0%	/	4.1	-75	0.2	1.0%
CC(=O)CSc1nnc(-c2ccncc2)n1C	-4	16%	-2.9%	-0.6	0	1.2	5.9%
CCN(c1ccccc1)S(=O)(=O)c1cc(C(=O)Oc2ccc3c(C)cc(=O)oc3c2)ccc1C	16	7%	-28%	2.1	2	-2.2	-2.0%
Cc1ccc(S(=O)(=O)Nc2cccc(/C=C/C(=O)O)c2)cc1	-12	5%	4.0%	0.1	?	-0.6	0.4%
CS(=O)(=O)N1CCN(C(=O)CCc2ccccc2)CC1	1	11%	0.1%	1.1	4	3.1	-0.4%
CCCSc1nc2c([nH]c3ccccc32)c(=O)n1C	13	/	-9.0%	0.2	/	/	-0.3%
CCCC1CC(C(=O)Nc2ccccc2)C(=O)O1 (centres undefined)	11	/	/	0.1	/	/	-0.5%
Nc1ccccc1/C=C/c1ccnc2ccccc12	/	/	1.1%	4.9	/	/	0.5%
COc1ccc2nc3oc(C(=O)N4CCCCC4)cc3cc2c1	-2	19%	28µM*	1.2	-10	0.6	1.4%
Cc1ncoc1C(=O)Nc1ccc(Oc2ccccc2)cc1	-2	-28%	-0.5%	0.4	-23	-0.1	-5.2%[38.3 µM]
CCC1(c2ccc(F)cc2)NC(=O)N(CC(=O)N2c3ccccc3NC(=O)CC2C)C1=O (centres undefined)	-4	/	-0.5%	1.7	11	/	0.7%
O=C(COC(=O)c1ccccc1O)Nc1ccc(N2CCOCC2)cc1	0	/	15%	0.1	12	/	0.0%
O=S(=O)(c1ccc(F)c(Cl)c1)N1CCCC1	7	-6%	-2.9%	2.3	0	1.8	-0.7%[38.3 µM]
CCOc1ccc(Nc2nc3ccccc3n3c(CC)nnc23)cc1	20	/	-5.9%	0.5	/	/	-1.9%
Cn1nnnc1SCC(=O)Nc1ccccn1	-3	21%	-1.9%	2.7	19	-1.2	-0.3%[38.3 µM]
Cc1cc2oc(=O)cc(-c3ccccc3)c2c(C)c1-c1ccc(N(C)C)cc1	19	-7%	-0.2%	-0.8	/	4.3	0.2%
Cc1ccc2nsnc2c1NC(=O)c1ccc2c(c1)OCCO2	5	-1%	-7.2%	0.5	6	2.8	/
O=S(=O)(N1CCCCC1)N1CCN(S(=O)(=O)N2CCCCC2)CC1	5	-7%	2.0%	-0.6	2	-4.2	1.3%
O=C(O)C1CC=CCC1C(=O)Nc1cccc([N+](=O)[O-])c1 (centres undefined)	10	20%	-2.1%	0.5	12	-2.3	0.0%
Cc1cc(C)c(NC(=O)CSc2nnc(CNC(=O)c3ccccc3F)o2)c(C)c1	-2	23%	-1.5%	-0.8	8	/	-0.1%
CCOc1ccc(-n2c(=O)c3c4c(sc3n(CC(=O)NC(C)CC)c2=O)CCCCC4)cc1 (centres undefined)	0	/	-1.1%	-0.2	/	/	0.4%
CCS(=O)(=O)N1CCc2cc(C(=O)N3CCN(c4ccccc4)CC3)ccc21	7	/	2.0%	-0.8	/	/	-0.5%
C(=N\N1CCN(c2ccccn2)CC1)/c1cccc2ccccc12	-16	?	/	0.8	-7	-1.3	16%
CC(=O)Nc1ccc(NC(=O)c2cc(-c3ccc(C)c(C)c3O)n[nH]2)cc1	/	6%	-11%	/	14	13	0.1%
Cc1cc(C)nc(Nc2nc3ccccc3o2)n1	2	-10%	/	3.4	3	1.3	0.6%
CCC(C)n1c(SCC(=O)NC2CC2)nc2ccccc2c1=O (centres undefined)	5	/	1.4%	-0.6	/	/	1.4%
CCn1c(SCC(=O)NC2CCCC2)nnc1-c1ccncc1	-8	15%	/	0.5	29	0.0	-1.3%
Cc1ccc(CC(CC(=O)O)C(=O)NC2CCCCC2)cc1 (centres undefined)	-8	26%	1.0%	0.0	7	2.8	/
CSc1ccc(CC2C(=O)Nc3ccccc32)cc1 (centres undefined)	21	/	0.4%	2.4	/	/	2.9%
COc1ccc2[nH]c3c(c2c1)CCn1c-3nc2sc(C(=O)Nc3ccccc3)c(C)c2c1=O	/	11%	/	/	12	6.2	/
CCOC(=O)c1cc2c(nc1NC(=S)NCc1ccccc1)CCCC2	1	28%	/	0.8	-8	-1.5	6.1%
COc1ccc(OC)c(CCNC(=O)c2csc3c2CCCCC3)c1	21	/	-0.2%	2.6	/	/	-0.8%
CCC(CC)C(=O)Nc1nnc(SCC(=O)NC2CC2)s1	-2	-7%	-1.9%	-1.7	-16	-0.8	2.1%
O=C(NCc1ccco1)C1CC(=O)N(c2ccc(F)cc2)C1 (centres undefined)	-2	-3%	-0.3%	-0.4	6	6.3	-0.7%
Cc1ccccc1NC(=O)CN1CCN(c2ccc(F)cc2)CC1	-17	/	-3.3%	0.1	/	/	2.3%
